RanGTP-Impb inh – inhibitors of RanGTP-importin-beta interaction, primary screen, biochemical, FRET, CFP-Ran, YFP-importin-beta, homogeneous. Ran GTPase (GTP-bound) - importin-beta complex. cell-free CFP-Ran/YFP-importin-beta FRET ratio. inhibition, % (test concentration not listed). 300,000 tested, 1.1% active;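 active = most replicates above 15%; inconclusive = exactly half above 15%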;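 note: 0% = DMSO wells and 100% = Ran loaded with GDP instead of GTP; wells of about 40 µL received 100 nL stock; the first replicate is given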
LANA-H2A inh – blockers of LANA interaction with H2A/H2B – biochemical, FP readout, HTS, primary screen | Protein LANA1 (Human herpesvirus 8 type P (isolate GK18)), Q9QR71 | cell-free LANA-H2A/H2B peptide, fluorescence polarization | inhibition, % (concentration not given with the values) | 320,000 tested, 0.6% active | AID 2629, 2010; in the data active = inhibition mostly above about 10%, no sharp cut-off; inactive = mostly below about 6.7%;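 note: stock transfer was 7.5 nL into about 10 µL; 0% = median of vehicle wells and 100% = median of positive control wells; one replicate is shown; the record names a cut of 25% in any replicate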
Target sequence (Q9QR71 whole entry, looked up): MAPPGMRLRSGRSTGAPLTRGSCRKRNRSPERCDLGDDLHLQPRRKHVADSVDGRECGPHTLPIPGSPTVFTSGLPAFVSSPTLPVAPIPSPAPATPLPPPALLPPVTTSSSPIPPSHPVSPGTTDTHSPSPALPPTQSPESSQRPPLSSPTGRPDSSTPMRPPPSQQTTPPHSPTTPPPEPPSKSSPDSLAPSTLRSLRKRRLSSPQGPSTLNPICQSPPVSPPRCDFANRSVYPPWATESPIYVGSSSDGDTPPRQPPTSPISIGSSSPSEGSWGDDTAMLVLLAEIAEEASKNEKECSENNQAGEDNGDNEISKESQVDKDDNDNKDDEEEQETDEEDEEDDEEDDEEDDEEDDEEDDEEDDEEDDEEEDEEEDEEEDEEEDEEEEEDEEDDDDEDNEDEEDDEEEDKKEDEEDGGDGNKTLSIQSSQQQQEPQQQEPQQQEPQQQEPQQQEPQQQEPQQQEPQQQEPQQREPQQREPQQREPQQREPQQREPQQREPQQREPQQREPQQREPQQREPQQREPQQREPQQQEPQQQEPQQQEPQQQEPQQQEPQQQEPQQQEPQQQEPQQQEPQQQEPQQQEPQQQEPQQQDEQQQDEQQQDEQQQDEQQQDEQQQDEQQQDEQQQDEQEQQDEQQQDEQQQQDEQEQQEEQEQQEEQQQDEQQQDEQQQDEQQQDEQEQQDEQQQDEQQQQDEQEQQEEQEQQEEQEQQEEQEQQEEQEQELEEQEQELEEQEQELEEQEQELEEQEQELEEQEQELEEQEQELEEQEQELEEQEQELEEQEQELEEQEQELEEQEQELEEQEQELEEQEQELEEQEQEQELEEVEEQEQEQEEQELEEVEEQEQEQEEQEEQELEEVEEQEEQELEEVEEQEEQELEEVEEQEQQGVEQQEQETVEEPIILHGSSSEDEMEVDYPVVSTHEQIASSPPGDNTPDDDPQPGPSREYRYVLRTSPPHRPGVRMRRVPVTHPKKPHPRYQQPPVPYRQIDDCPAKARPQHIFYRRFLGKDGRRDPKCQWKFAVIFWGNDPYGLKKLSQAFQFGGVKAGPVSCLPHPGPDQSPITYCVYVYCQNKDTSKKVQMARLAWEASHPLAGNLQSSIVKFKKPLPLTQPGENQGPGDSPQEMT
HNF4A DNA FP – change in binding of human HNF4A to DNA, primary screen, biochemical, fluorescence polarization, FITC-DNA; AID 1224865, 2016; 360,000 tested, 0.3% active; Hepatocyte nuclear factor 4-alpha (Homo sapiens), P41235; activity change, % at 10 µM; 1 h; in the data active = activity change above about 30%, passing the limit was not always enough;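 note: controls were the assay level and a saturating level of protein; the project sought stronger binding though the title names inhibitors; some compounds called inactive have numbers as strong as hits; positive values seem to mean higher polarization but the record does not say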
Vif A3G – inhibitors of Vif binding to APOBEC3G peptide, primary screen, biochemical, TR-FRET, GST-Vif 1-94, biotin-A3G peptide, dose response retest (AID 1117319) | inhibition, %; hits with a dose series show IC50 in µM | 260,000 tested, 0.57% active | TR-FRET GST-Vif / biotin-A3G peptide binding; higher % means a stronger effect; test concentration not given here; strong numbers were not always called active | Virion infectivity factor (Human immunodeficiency virus type 1 group M subtype B (isolate …;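 active = above the screen mean plus three standard deviations and confirmed in dose response; inconclusive = results disagree or hit not tested in dose response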;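 note: Vif residues 1-94 fused to GST binding biotinylated APOBEC3G peptide 110-148; 0% = full assay without inhibitor and 100% = GST in place of GST-Vif; retest series ran down from 100 µM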
ALR H2O2 inh – inhibitors of human ALR sulfhydryl oxidase, primary screen, biochemical, H2O2 detection, HRP-luminol luminescence, single point; FAD-linked sulfhydryl oxidase ALR (Homo sapiens), P55789; 290,000 tested, 3.8% active; AID 485317, 2010; purified ALR, DTT oxidation; inhibition, % (test concentration not listed);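 active = mean and each replicate at 75% or more; inconclusive = only one of the two met; inactive = neither met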;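 note: stock transfer was 7.5 nL into about 7.5 µL; 0% = neutral wells and 100% = wells with inactivated enzyme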
Calb FLC – C. albicans growth inhibition with fluconazole, primary screen, CaCi-2 strain, Alamar Blue fluorescence; AID 1979, 2009; C. albicans CaCi-2 (fluconazole-resistant clinical isolate) + fluconazole, 48 h; 300,000 tested, 0.57% active; growth inhibition, % (concentration not given with the values);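 active = most replicates above 75%; inconclusive = exactly half above 75%; inactive = most below 75%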;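 note: all wells also contain fluconazole at 8 µg/ml as a sub-toxic cotreatment; 0% = median of DMSO wells and 100% = median of geldanamycin control wells; wells of about 8 µL received 7.5 nL stock; the first replicate is given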
B2AR ag – beta2AR agonists driving receptor internalization, primary screen, cell-based, FAP fluorogen, flow cytometry. Beta-2 adrenergic receptor (Homo sapiens), P07550. Am2.2-beta2AR cells; reference of the scale not given here. response, % (concentration not given with the values). 340,000 tested, 0.43% active. AID 504454, 2011;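 active = response above a set limit, near 3 SD of response in nonfluorescent compounds, cut at about 42% in these data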;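 note: stock transfer was 100 nL into about 11 µL; a reference agonist was the positive control; negative values mostly stem from fluorescent compounds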
Active calls of the source: *; ? = inconclusive; · = no result given; & = joins results of further samples.

SMILES | RanGTP-Impb inh | LANA-H2A inh | HNF4A DNA FP | Vif A3G | ALR H2O2 inh | Calb FLC | B2AR ag
O=C1C(Cc2cccc([N+](=O)[O-])c2)SC(=Nc2ccccc2)N1c1ccccc1 (configuration not stated) | 3.8 | 1.8 | 1.3 | · | -37 | -4 | -4
Cc1cc(C(=O)N2CCN(S(=O)(=O)c3ccccc3F)CC2)c(C)o1 | ? | 3.4 | 0.0 | · | -11 | 5 | 17
Cc1ccccc1NC1=C(Cl)C(=O)OC1OC(=O)c1ccccc1C (configuration not stated) | ? | -0.7 | -1.0 | · | -5 | -5 | 1
COc1ccccc1OCC(=O)n1cc(C(=O)c2cc(Cl)cc(Cl)c2O)cn1 | -4.7 | -0.3 | 2.7 | · | 34 | 6 | -5
CC(=O)C1=C(O)C(=O)N(c2cccnc2)C1c1cccc([N+](=O)[O-])c1 (configuration not stated) | 0.4 | 4.2 | -1.6 | 2% | -6 | 1 | 1
CN(CC1CCCN(CCc2cccc(C(F)(F)F)c2)C1)C(=O)c1ccc2nc[nH]c2c1 (configuration not stated) | 2.4 | 0.5 | -0.6 | · | -1 | -7 | -2
CC(=O)Nc1nc(-c2ccc(Cl)cc2)nc(C)c1C(C)=O | -8.0 | -2.4 | -0.4 | 0% | -2 | 5 | 4
Cc1cc(C)n2nc(C(=O)Nc3cc(S(=O)(=O)N4CCCCC4)ccc3C)nc2n1 | · | -2.3 | 2.2 | · | -15 | · | 3
CCCCCOCC1CC(C/C(C)=N/Nc2nc(-c3ccccc3)cs2)C(=O)O1 (configuration not stated) | 0.3 | 0.2 | 14 | 9% | 96* | -7 | -5
O=C1CCCN1CCCNC(=S)Nc1ccc(F)c(Cl)c1 | -1.8 | -2.7 | -0.2 | -1% | -14 | 4 | 0
COc1ccc(S(=O)(=O)NCc2cccnc2)c2ccccc12 | 2.9 | 5.5 | -2.0 | · | -10 | 5 | -1
CC(C)c1ccccc1OCCCCN1CCCCC1 | ? | -6.1 | 1.4 | · | -3 | -24 | 2
CC(=O)N1CCN(C(=O)CC2OC(=O)c3ccccc32)CC1 (configuration not stated) | 1.4 | 1.1 | -0.7 | 6% | -2 | 1 | 10
Nn1c(SCC(=O)Nc2nccs2)nnc1-c1cccnc1 | · | -1.2 | 2.5 | · | · | · | 6
COC(=O)C1=C(C)N=C2SC(C#N)=C(N)N2C1c1cc(OC)c(OC)c(OC)c1 (configuration not stated) | 13 | 6.0 | 4.9 | 17% | 20 | 12 | -12
CN(C)c1ccc(C=Nc2ccc(N(C)C)cc2)cc1 | 0.8 | 1.5 | 0.6 | · | 97* | 13 | -3
COc1ccc(S(=O)(=O)Nc2cc(C)ccn2)cc1 | ? | 1.6 | 4.1 | -2% | · | -12 | 1
CC(=O)c1c(C)[nH]c(C(=O)NCCc2cccc(C)c2)c1C | 1.7 | 1.3 | 5.8 | -8% | -3 | 5 | -5
COc1cccc(NC(=O)N2CCC(n3nnc4ccccc43)CC2)c1 | -0.6 | 6.5 | 0.8 | · | -14 | 2 | -1
CC(=O)N=C1C=CC(=CN(O)C(C)(C)Cc2ccccc2)C=C1 | 3.5 | 1.9 | -0.1 | · | -10 | -8 | -13
COc1ccc(NS(=O)(=O)c2cc(NC(=O)CNC(=O)c3ccc(C)s3)ccc2Cl)cc1 | 4.8 | · | 4.7 | · | · | 11 | 15
O=C1OCCN1C(=O)[C@H]1[C@H](c2ccc([N+](=O)[O-])cc2)C(c2ccccc2)=NN1c1ccc(Br)cc1 | · | · | -1.9 | -4% | · | · | -3
Nc1cc(C(=O)OCC(=O)N2CCCC2)ccc1Cl | ? | 4.0 | 0.0 | 2% | · | 5 | 0
COc1cccc(-n2c(=O)n(Cc3ccccc3)c(=O)c3[nH]cnc32)c1C | 3.5 | 11 | -3.0 | -6% | 1 | -5 | 8
Cc1ccc(C(=O)CCC(=O)NC2=NCCS2)cc1 | · | -2.8 | -2.6 | -7% | -1 | · | 8
CS(=O)(=O)c1ccc(C(=O)NC2CCOC2=O)cc1 (configuration not stated) | -0.2 | -5.2 | 0.8 | -2% | -13 | -10 | 2
CCOc1ccc(C(=O)N2CCN(c3cccc(Cl)c3)CC2)cc1 | 0.1 | -9.3 | 1.8 | 1% | -4 | 11 | -6
CC(=O)c1cccc(NC(=O)CN2C(=O)COc3ccc(S(=O)(=O)N4CCOCC4)cc32)c1 | -2.7 | -4.1 | 9.8 | · | -1 | 1 | 0
CC(=O)Nc1c(O)nc(SC/C=C/CSc2nc(O)c(NC(C)=O)c(=O)[nH]2)[nH]c1=O | -1.9 | -6.8 | -2.5 | -9% | -20 | 6 | -1
Cc1ccc2c(c1)N(CC(=O)Nc1c(C)cccc1C)C(=O)c1cccnc1O2 | ? | -1.8 | 2.6 | · | -3 | -37 | -4
c1ccc(CN2CCCC3(CCCN(Cc4nc(CC5CC5)no4)C3)C2)cc1 (configuration not stated) | 1.8 | -3.3 | 3.1 | · | -3 | -5 | -10
CC(C)(C)c1ccc(C(=O)NCCC(=O)Nc2ccc3c(c2)OCCO3)cc1 | · | · | -2.8 | -2% | · | · | -3
CC1CC(C)CN(S(=O)(=O)c2ccc3c(c2)CCN3C(=O)C2CC2)C1 (configuration not stated) | -3.5 | -0.9 | -0.6 | -8% | -1 | 15 | -3
CCC(=O)Oc1oc(-c2ccccc2)nc1C=Nc1ccccc1OC | 2.7 | 1.1 | 6.6 | 22% | · | 2 | 8
O=C(CC1C(=O)NCCN1Cc1ccccc1C(F)(F)F)NC1CCC1 (configuration not stated) | 2.1 | 181* | -5.5 | -5% | -16 | -8 | 2
Cc1cc(Nc2ccc(F)cc2F)n2nc(C)nc2n1 | 0.0 | 5.6 | 0.1 | ? | · | 4 | 8
O=C(COC(=O)[C@H](Cc1ccccc1)NC(=O)c1cccs1)NC1CCCCC1 | 2.8 | -2.1 | 2.8 | · | -9 | 2 | 5
N#C/C(=C\c1ccco1)Sc1nc2ccccc2s1 | -2.2 | 4.2 | 5.8 | 7% | 2 | 17 | -1
COc1ccc(-n2ncc3c(Nc4cccc(C)c4)ncnc32)cc1 | 3.6 | -4.0 | 3.3 | ? | -2 | 25 | 14
COc1ccc(NC(=O)COC(=O)c2ccc(-n3cnnn3)cc2)cc1Cl | 3.9 | -4.8 | 3.8 | 0% | -2 | -4 | -3
Cc1cc(N2CCN(c3cccc(C(F)(F)F)c3)CC2)n2nc(C)nc2n1 | -1.5 | · | -0.4 | 1% | · | -14 | -5
CCN(C1CCCCC1)S(=O)(=O)c1ccc(S(=O)(=O)N2CCN(CCC#N)CC2)cc1 | 0.5 | 0.2 | 4.5 | 2%&-11% | -23 | 9 | -6
CC(C)(C)n1nnnc1C(c1cccs1)N1CCCC2(CCCCC2)C1 (configuration not stated) | 2.5 | -2.2 | -1.3 | ? | 2 | ? | 8
CCOc1ccc(CN(C)CC(=O)Nc2cc(C)c(C)cc2[N+](=O)[O-])cc1 | -4.7 | -0.9 | 5.6 | 2% | 4 | -1 | 17
O=C(CN1CCN(S(=O)(=O)c2ccccc2[N+](=O)[O-])CC1)Nc1ccc(N2CCOCC2)cc1 | 0.5 | 2.7 | -3.4 | 1% | 6 | -3 | 0
O=C1Nc2ccccc2C(O)(C(=O)NCc2ccco2)N1c1ccc(Cl)c(Cl)c1 (configuration not stated) | -0.6 | 8.1 | -5.5 | ? | 75 | 17 | 10
Cc1ccc2c(c1)N(Cc1cccc(Cl)c1)C(=O)c1cccnc1O2 | 0.5 | -6.2 | 0.5 | -6% | 38 | 8 | -1
Cc1ccc2nc(Nc3nc(CSc4nnnn4-c4ccccc4)cc(=O)[nH]3)nc(C)c2c1 | -0.7 | 5.9 | 12 | 4% | -3 | -2 | -8
Cc1cccc(Oc2nc3c(c(=O)n(C)c(=O)n3C)n2C)c1 | -5.1 | 0.4 | 13 | 1% | · | 15 | -2
Cn1c(=O)[nH]c(=O)c2c1nc(Sc1ccccc1)n2CCc1ccccc1 | 1.4 | -1.9 | 0.0 | 2% | -11 | -1 | -4
COc1ccc(N=c2oc3c(OC)cccc3cc2C(=O)NCc2ccco2)c(OC)c1 | 1.3 | 3.6 | 1.2 | 0% | ? | 12 | 1
NS(=O)(=O)c1ccc(CCNC(=O)CSc2nc3ccccc3c3nc(CCN4CCCCC4)nn23)cc1 | -1.0 | -0.3 | 0.4 | 10% | -8 | -9 | -10
Cn1cnc(S(=O)(=O)N2CCN(C(c3ccc(F)cc3)c3ccc(F)cc3)CC2)c1 | -0.7 | -7.4 | 2.0 | · | -5 | 1 | -7
Cc1ccccc1C(=O)NCCOc1ccccc1Cl | 1.8 | 3.9 | 1.2 | 8% | -2 | -5 | -6
COc1ccc(NC(=O)CSc2nncs2)cc1S(N)(=O)=O | 2.0 | -2.8 | -0.2 | · | -3 | -4 | 1
COCCNC(=O)NC(=O)CN1CCN(C(c2ccccc2)c2ccccc2)CC1 | -2.2 | 2.5 | -0.1 | -10% | -10 | 2 | -5
CC1=NN(C(=O)Cn2nc([N+](=O)[O-])c(Br)c2C)C(O)(C(F)(F)F)C1 (configuration not stated) | -5.9 | -13 | -0.8 | 4% | -7 | -2 | 12
Cc1cc(C)n2ncc(C(=O)NCc3ccc(Cl)cc3)c2n1 | -0.9 | -1.6 | -0.8 | 21% | -8 | -4 | -8
CC(C)Oc1ccc(CCc2n[nH]c(=S)n2Cc2ccccc2)cc1 | -1.7 | 1.5 | -1.4 | ? | 7 | 5 | -5
CCOC(=O)C1CCCCN1Cc1cccc(C(F)(F)F)c1 (configuration not stated) | 2.1 | 2.8 | 1.0 | -2% | -5 | -5 | -2

Next section
SMILES | RanGTP-Impb inh | LANA-H2A inh | HNF4A DNA FP | Vif A3G | ALR H2O2 inh | Calb FLC | B2AR ag
Cc1nnc(SCC(=O)NC2CCCc3c2cnn3-c2ccc(F)cc2F)o1 (configuration not stated) | -0.9 | -0.1 | 2.1 | · | -7 | 5 | 5
CCOC(=O)C1=C(N)Oc2cc(O)ccc2C1c1ccc(C)cc1 (configuration not stated) | 1.8 | -2.9 | -4.8 | -13% | -8 | -2 | 23
CCOc1ccc(C(=O)Nc2ccc3nc(N4CCN(CC)CC4)cc(C)c3c2)cc1 | 0.3 | 1.7 | 3.4 | -18% | -6 | -5 | 17
CC1Nc2ncnc(N3CCN(c4ccccc4)CC3)c2N(Cc2ccc(Cl)cc2)C1=O (configuration not stated) | ? | 2.9 | 6.5 | · | 9 | -9 | 37
COc1ccc(Cl)cc1S(=O)(=O)N1CCC(C(=O)NCc2ccccn2)CC1 | 1.0 | 1.6 | -0.6 | -2% | 0 | -6 | 0
O=C(CC1C(=O)NCCN1Cc1ccccc1)NCCCOc1cccnc1 (configuration not stated) | 0.0 | 3.8 | -5.6 | · | -3 | -1 | -5
O=C1OCC/C1=C\c1ccccc1O | 4.9 | 6.3 | -0.4 | ? | 28 | -4 | -6
O=C(Nc1ccc(F)cc1)c1cc2c(s1)CCCC2 | -1.8 | -3.1 | -2.6 | -4% | 4 | -3 | -3

No enrichment for hits; overall some 6.3% were active at least once.
